High-throughput results as filed in PubChem BioAssay.
UUG fidelity = alters start codon recognition fidelity in yeast. S. cerevisiae UUG-firefly luciferase reporter, luminescence/redox ratio. activity score, % at 18.7 µM. hit rate 0.13% among 350,000. AID 602363;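 active = replicate mean at a twofold rise or more, about +100% in these data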;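 also: firefly luciferase made from a UUG start codon reports start codon fidelity; reporter light over untreated wells divided by growth signal over untreated wells; some hits fall short of that in this replicate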
HIV Env fusion = inhibitors of HIV Env-mediated cell fusion; HeLa-JRFL Env/CEM21 cell fusion, luciferase; inhibition, % at 12.3 µM; hit rate 1.1% among 360,000;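 active = mean replicate inhibition score of at least 50 and every replicate individually at or above 50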;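 also: 0% = plate neutral controls and 100% = maraviroc near 300 nM; one replicate is shown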
The depositor's hits bear a star; [ ] = remark or other dose.

SMILES,UUG fidelity,HIV Env fusion
O=C(C[C@H]1CC[C@H](NC(=O)Nc2cccc(F)c2)[C@@H](CO)O1)NCC1CC1,-8,-1[16.7 µM]
C[C@@H]1CN([C@@H](C)CO)C(=O)Cc2cc(NC(=O)Nc3ccccc3)ccc2O[C@H]1CN(C)C(=O)Nc1cccc2ccccc12,-3,-4[16.7 µM]
CNC[C@@H]1Oc2ccc(NC(=O)CCCN(C)C)cc2C(=O)N([C@@H](C)CO)C[C@@H]1C,2,-1[16.7 µM]
COCC#Cc1ccc2c(c1)O[C@@H](CN(C)Cc1cccnc1)[C@H](C)CN([C@H](C)CO)S2(=O)=O,2,9[16.7 µM]
C[C@H]1CN([C@@H](C)CO)C(=O)c2cc(NC(=O)Nc3ccc4c(c3)OCO4)ccc2O[C@@H]1CN(C)Cc1ccc(-c2ccccc2)cc1,-1,-1[16.7 µM]
CC(C)CC#Cc1ccc2c(c1)O[C@@H](CN(C)Cc1cccnc1)[C@@H](C)CN([C@@H](C)CO)S2(=O)=O,-7,16[16.7 µM]
CC(C)C#Cc1ccc2c(c1)O[C@@H](CN(C)C(=O)C1CCCCC1)[C@H](C)CN([C@@H](C)CO)S2(=O)=O,7,36[16.7 µM]
C[C@@H]1CN([C@@H](C)CO)C(=O)c2cc(C3=CCCC3)cnc2O[C@H]1CN(C)C(=O)Nc1ccc(F)cc1,20,-2[16.7 µM]
COCC#Cc1cnc2c(c1)C(=O)N([C@@H](C)CO)C[C@H](C)[C@@H](CN(C)C(=O)c1cccc(F)c1)O2,-2,14[16.7 µM]
CNC[C@@H]1OCCCC[C@H](C)Oc2ccc(NC(=O)c3ccccc3)cc2C(=O)N([C@H](C)CO)C[C@@H]1C,12,0[16.7 µM]
COc1ccc(CNC(=O)C[C@@H]2C=C[C@H](NS(=O)(=O)c3cccc(OC)c3)[C@@H](CO)O2)cc1,-1,4[16.7 µM]
CNC[C@H]1Oc2ccc(NC(=O)c3ccncc3)cc2CC(=O)N([C@@H](C)CO)C[C@@H]1C,0,-1[16.7 µM]
COC(=O)CCCCCCC(=O)Nc1ccc(C2OC(CSc3ccccn3)CC(c3ccccc3)O2)cc1 (stereo unspecified),-3,-2[16.7 µM]
CC(C)CC#Cc1ccc2c(c1)O[C@H](CN(C)S(=O)(=O)c1ccc(F)cc1)[C@H](C)CN([C@@H](C)CO)S2(=O)=O,-13,61*[16.7 µM]
C[C@@H]1CN([C@@H](C)CO)C(=O)c2cccc(NS(=O)(=O)c3cn(C)cn3)c2O[C@H]1CN(C)Cc1ccc2c(c1)OCO2,-8,-14[16.7 µM]
N#C[C@@H]1[C@H](c2ccc(C#Cc3cccc(F)c3)cc2)[C@@H](CO)N1C(=O)C1CCCC1,-38,29[16.7 µM]
CNC[C@H]1Oc2c(NS(=O)(=O)c3cn(C)cn3)cccc2C(=O)N([C@@H](C)CO)C[C@@H]1C,-5,2[16.7 µM]
C[C@@H]1CN([C@H](C)CO)C(=O)c2cc(-c3cccc(F)c3)cnc2O[C@H]1CN(C)Cc1cccnc1,-7,0[16.7 µM]
COc1ccc(NC(=O)Nc2ccc3c(c2)C(=O)N([C@H](C)CO)C[C@H](C)[C@H](CN(C)C(=O)Cc2ccccc2)OCCCC[C@H](C)O3)cc1,46,11[16.7 µM]
COc1ccc(S(=O)(=O)N(C)C[C@H]2OCCCC[C@H](C)Oc3ccc(NC(=O)NC4CCCCC4)cc3C(=O)N([C@@H](C)CO)C[C@@H]2C)cc1,-2,-14[16.7 µM]
C[C@@H]1CCCCO[C@@H](CN(C)Cc2ccc(C(F)(F)F)cc2)[C@H](C)CN([C@H](C)CO)C(=O)c2cc(NC(=O)CCC(F)(F)F)ccc2O1,10,21[16.7 µM]
C[C@@H]1CCCCO[C@@H](CN(C)Cc2ccc(Cl)c(Cl)c2)[C@H](C)CN([C@H](C)CO)C(=O)c2cc(NS(=O)(=O)c3ccc(Cl)cc3)ccc2O1,9,-10[16.7 µM]
C[C@H]1CN([C@@H](C)CO)C(=O)c2cc(NC(=O)Nc3cccc4ccccc34)ccc2O[C@H]1CN(C)S(=O)(=O)c1ccc(F)cc1,-1,18[16.7 µM]
COc1ccc(NC(=O)N(C)C[C@@H]2OCCCC[C@@H](C)Oc3ccc(NC(=O)Nc4ccccc4)cc3C(=O)N([C@@H](C)CO)C[C@@H]2C)cc1,-13,-19[16.7 µM]
COCc1cn(CC[C@H]2CC[C@@H](NC(=O)CCN3CCCCC3)[C@@H](CO)O2)nn1,-11,-29[16.7 µM]
C[C@H](CO)N1C[C@H](C)[C@@H](CN(C)C(=O)Nc2ccccc2)OCCCC[C@H](C)Oc2ccc(NC(=O)c3ccncc3)cc2C1=O,-6,-22[16.7 µM]
Cc1noc(C)c1S(=O)(=O)N(C)C[C@H]1OCCCC[C@H](C)Oc2ccc(NC(=O)NC3CCCCC3)cc2C(=O)N([C@H](C)CO)C[C@@H]1C,0,12[16.7 µM]
O=C(C[C@@H]1C=C[C@H](NC(=O)Cc2ccccn2)[C@@H](CO)O1)NCCCN1CCOCC1,-9,24[16.7 µM]
O=C(C[C@H]1C=C[C@H](NC(=O)C2CCC2)[C@H](CO)O1)NCc1ccncc1,2,-2[16.7 µM]
CC(C)NC(=O)Nc1ccc2c(c1)C(=O)N([C@@H](C)CO)C[C@@H](C)[C@@H](CN(C)S(=O)(=O)c1ccccc1)OCCCC[C@@H](C)O2,-8,-26[16.7 µM]
O=C(N[C@H]1CC[C@H](CCn2cc(C3(O)CCCC3)nn2)O[C@H]1CO)C1CCCCC1,162*,5[16.7 µM]
Cc1ccc(S(=O)(=O)NCC[C@@H]2CC[C@@H](NC(=O)CCN3CCCCC3)[C@@H](CO)O2)cc1,-2,-7[16.7 µM]
C[C@@H]1CN([C@@H](C)CO)S(=O)(=O)c2ccc(-c3ccc(F)cc3)cc2O[C@H]1CN(C)C(=O)C1CCCCC1,1,67*[16.7 µM]
COc1cccc(C#Cc2ccc3c(c2)O[C@H](CN(C)C(=O)c2ccccn2)[C@@H](C)CN([C@H](C)CO)S3(=O)=O)c1,-4,-16[16.7 µM]
C[C@@H]1CN([C@@H](C)CO)C(=O)Cc2cc(NC(=O)Cc3ccccc3)ccc2O[C@H]1CN(C)S(C)(=O)=O,3,-18[16.7 µM]
C[C@H]1CN([C@@H](C)CO)C(=O)c2cccc(N(C)C)c2O[C@H]1CN(C)Cc1ccc(C(F)(F)F)cc1,0,3[16.7 µM]
C[C@@H]1CN([C@H](C)CO)C(=O)c2cc(C#Cc3ccc(F)cc3)cnc2O[C@@H]1CN(C)CC1CC1,10,-2[16.7 µM]
C[C@H]1CN([C@@H](C)CO)C(=O)c2cc(NS(=O)(=O)c3ccc(Cl)cc3)ccc2O[C@H]1CN(C)S(=O)(=O)c1ccccc1,2,11[16.7 µM]
C[C@@H]1CN([C@H](C)CO)C(=O)Cc2cc(N(C)C)ccc2O[C@H]1CN(C)C(=O)Nc1ccccc1,-5,1[16.7 µM]
CN1C(=O)c2cc(NC(=O)Cc3cccs3)ccc2OC[C@@H]2O[C@@H](CC(=O)NCC3CC3)CC[C@H]21,4,-33[16.7 µM]
C[C@@H]1CN([C@H](C)CO)C(=O)c2cc(-c3ccncc3)cnc2O[C@H]1CN(C)C(=O)c1ccc(F)cc1,-5,-8[16.7 µM]
O=C(Nc1ccc(Cl)cc1)N[C@@H]1CC[C@@H](CCNC(=O)c2ccccc2F)O[C@H]1CO,-6,11[16.7 µM]
Cc1ccccc1S(=O)(=O)NCC[C@H]1CC[C@H](NC(=O)C2CCOCC2)[C@H](CO)O1,-1,11[16.7 µM]
C[C@H]1CN([C@@H](C)CO)C(=O)Cc2cc(NS(=O)(=O)c3cn(C)cn3)ccc2O[C@@H]1CN(C)CC1CCCCC1,0,-6[16.7 µM]
CNC(=O)C[C@@H]1CC[C@@H]2[C@@H](COc3ccc(NC(=O)c4cccs4)cc3C(=O)N2C)O1,0,-12[16.7 µM]
C[C@@H]1CCCCO[C@@H](CN(C)C(=O)NC2CCCCC2)[C@@H](C)CN([C@H](C)CO)C(=O)c2cc(NC(=O)Nc3ccccc3)ccc2O1,-16,-40[16.7 µM]
C[C@@H]1CN([C@H](C)CO)C(=O)c2cc(C#CCN(C)C)cnc2O[C@H]1CN(C)C(=O)c1cccc(F)c1,3,0[16.7 µM]
CC(C)C#Cc1ccc2c(c1)O[C@H](CN(C)C(=O)c1cccc(F)c1)[C@@H](C)CN([C@H](C)CO)S2(=O)=O,6,19[16.7 µM]
C[C@H](CO)N1C[C@H](C)[C@H](CN(C)Cc2ccccc2)Oc2cc(C#Cc3ccccn3)ccc2S1(=O)=O,-5,3[16.7 µM]
COCC(=O)N(C)C[C@@H]1Oc2ncc(Br)cc2C(=O)N([C@@H](C)CO)C[C@@H]1C,-9,-2[16.7 µM]
O=C(NCC[C@H]1CC[C@H](NC(=O)c2cnccn2)[C@H](CO)O1)c1ccc2c(c1)OCO2,7,-17[16.7 µM]
COc1ccccc1-c1ccc2c(c1)O[C@H](CN(C)S(=O)(=O)c1ccc(C)cc1)[C@@H](C)CN([C@@H](C)CO)S2(=O)=O,-9,23[16.7 µM]
CNC[C@@H]1OCCCC[C@@H](C)Oc2ccc(NS(=O)(=O)c3ccccc3)cc2C(=O)N([C@H](C)CO)C[C@H]1C,4,20[16.7 µM]
C[C@@H]1CCCCO[C@H](CN(C)C(=O)CCC(F)(F)F)[C@H](C)CN([C@@H](C)CO)C(=O)c2cc(NC(=O)CCC(F)(F)F)ccc2O1,19,9[16.7 µM]
C[C@@H]1CN([C@@H](C)CO)C(=O)c2cc(Br)cnc2O[C@H]1CN(C)C(=O)c1ccccn1,1,-5[16.7 µM]
Cc1noc(C)c1NC(=O)Nc1ccc2c(c1)CC(=O)N([C@@H](C)CO)C[C@H](C)[C@H](CN(C)C(=O)Nc1cccc3ccccc13)O2,-1,1[16.7 µM]
COc1ccc(-c2ccc3c(c2)O[C@@H](CN(C)Cc2cccnc2)[C@H](C)CN([C@H](C)CO)S3(=O)=O)cc1,-2,9[16.7 µM]
CC(C)NC(=O)N(C)C[C@H]1Oc2cc(-c3ccccc3F)ccc2S(=O)(=O)N([C@H](C)CO)C[C@H]1C,4,19[16.7 µM]
COc1ccc(NC(=O)N(C)C[C@@H]2Oc3ccc(NC(=O)NC4CCCCC4)cc3C(=O)N([C@H](C)CO)C[C@H]2C)cc1,-1,14[16.7 µM]
Cc1noc(C)c1S(=O)(=O)N(C)C[C@H]1Oc2ccc(NS(C)(=O)=O)cc2CC(=O)N([C@@H](C)CO)C[C@H]1C,0,19[16.7 µM]

New compounds follow
SMILES,UUG fidelity,HIV Env fusion
C[C@H](CO)N1C[C@H](C)[C@H](CN(C)C(=O)NC2CCCCC2)Oc2c(NC(=O)NC3CCCCC3)cccc2C1=O,-2,7[16.7 µM]
O=C(Cc1ccccc1)N[C@H]1C=C[C@H](CC(=O)N2CCCCC2)O[C@@H]1CO,-10,-9[16.7 µM]
COCC(=O)N1C[C@@H](C)[C@@H](OC)CN(C)C(=O)c2cc(NC(=O)c3ccc(OC)cc3)ccc2OC[C@H]1C,13,11[16.7 µM]
COc1cccc(-c2cnc3c(c2)C(=O)N([C@H](C)CO)C[C@H](C)[C@@H](CN(C)C(=O)CC2CC2)O3)c1,7,-1[16.7 µM]
CCC(=O)N(C)C[C@H]1Oc2cc(C#CC3(O)CCCC3)ccc2S(=O)(=O)N([C@@H](C)CO)C[C@H]1C,0,-19[16.7 µM]
COc1ccc(NC(=O)N(C)C[C@@H]2Oc3ccc(NC(=O)CCCCCC(=O)Nc4ccccc4N)cc3CC(=O)N([C@@H](C)CO)C[C@@H]2C)cc1,1,-6[16.7 µM]
CO[C@@H]1CN(C)C(=O)c2ccc(NC(=O)c3ccccc3F)cc2OC[C@@H](C)NC[C@@H]1C,-10,-8[16.7 µM]
CO[C@@H]1CN(C)C(=O)c2ccc(NS(C)(=O)=O)cc2OC[C@@H](C)N(C(=O)CN(C)C)C[C@@H]1C,-10,-14[16.7 µM]
COc1cccc(CNC(=O)C[C@H]2CC[C@@H](NC(=O)C3CC3)[C@H](CO)O2)c1,-10,5[16.7 µM]
COC(=O)C[C@@H]1C[C@@H]2c3cc(NC(=O)Nc4ccc(F)cc4)ccc3O[C@@H]2[C@@H](CO)O1,-14,-20[16.7 µM]
C[C@@H]1CCCCO[C@H](CN(C)S(=O)(=O)c2cccs2)[C@H](C)CN([C@H](C)CO)C(=O)c2cc(NC(=O)c3ccccc3)ccc2O1,18,21[16.7 µM]
CN(C)C(=O)C[C@@H]1CC[C@H]2[C@H](COc3ccc(NC(=O)C4CCOCC4)cc3C(=O)N2C)O1,12,8[16.7 µM]

A run of entries taken from the entries so far, as a working copy:
SMILES,UUG fidelity,HIV Env fusion
C[C@H](CO)N1C[C@H](C)[C@H](CN(C)C(=O)NC2CCCCC2)Oc2c(NC(=O)NC3CCCCC3)cccc2C1=O,-2,7[16.7 µM]
O=C(Cc1ccccc1)N[C@H]1C=C[C@H](CC(=O)N2CCCCC2)O[C@@H]1CO,-10,-9[16.7 µM]
COCC(=O)N1C[C@@H](C)[C@@H](OC)CN(C)C(=O)c2cc(NC(=O)c3ccc(OC)cc3)ccc2OC[C@H]1C,13,11[16.7 µM]
COc1cccc(-c2cnc3c(c2)C(=O)N([C@H](C)CO)C[C@H](C)[C@@H](CN(C)C(=O)CC2CC2)O3)c1,7,-1[16.7 µM]
CCC(=O)N(C)C[C@H]1Oc2cc(C#CC3(O)CCCC3)ccc2S(=O)(=O)N([C@@H](C)CO)C[C@H]1C,0,-19[16.7 µM]

A portion of the library; count on the stated rates, not on these rows.
